# Screening data as filed in PubChem BioAssay.
# D2 potentiator = positive allosteric modulators of human D2 dopamine receptor; P14416; DiscoveRx D2 beta-arrestin cells, luminescence, 90 min; 100% = 57 uM dopamine signal; potentiation, % (concentration not given with the values); 0.23% of 360,000 active; active = potentiation of 50% or more; inconclusive = 30% to 50%; inactive = 30% or less;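 note: compound concentration not given in the record; tested on top of an EC20 dose of dopamine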
#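 D2 cells co-treated with compound plus 50 nM dopamine (EC20) for 90 min at 37 deg C to detect potentiation. Beta-arrestin recruitment was read as enzyme-fragment luminescence after 1 h at ambient temperature. Full response was set by 57 uM dopamine.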
# Six1-Eya2 inh = Six1/Eya2 interaction inhibition; activity change, % (test concentration not listed); AlphaScreen GST-Six1/His-Eya2 binding, biochemical; active compounds read low; control for the full effect not named in the record; Q15475+O00167; 0.56% of 360,000 active; AID 651725; in the data active = activity change below about -65%; inconclusive = about -30% to -65%; inactive = above about -30%; note: % is set by controls: 0 for no effect and ±100 for the full control effect
# Target sequence (O00167 whole entry, looked up): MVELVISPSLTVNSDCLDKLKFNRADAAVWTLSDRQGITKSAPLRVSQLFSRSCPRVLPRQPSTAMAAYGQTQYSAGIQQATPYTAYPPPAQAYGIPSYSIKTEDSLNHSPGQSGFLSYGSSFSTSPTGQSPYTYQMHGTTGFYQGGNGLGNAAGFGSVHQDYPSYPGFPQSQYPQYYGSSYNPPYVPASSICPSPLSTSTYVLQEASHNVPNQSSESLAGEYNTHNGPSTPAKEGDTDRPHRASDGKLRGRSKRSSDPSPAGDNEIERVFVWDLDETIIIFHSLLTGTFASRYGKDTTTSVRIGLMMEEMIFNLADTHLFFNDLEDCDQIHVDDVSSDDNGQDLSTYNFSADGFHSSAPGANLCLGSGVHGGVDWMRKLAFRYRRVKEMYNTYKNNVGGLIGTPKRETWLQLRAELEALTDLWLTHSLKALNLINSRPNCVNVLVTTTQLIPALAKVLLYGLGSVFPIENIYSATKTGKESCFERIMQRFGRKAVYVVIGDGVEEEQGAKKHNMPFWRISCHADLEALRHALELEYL
# Target sequence (Q15475 whole entry, looked up): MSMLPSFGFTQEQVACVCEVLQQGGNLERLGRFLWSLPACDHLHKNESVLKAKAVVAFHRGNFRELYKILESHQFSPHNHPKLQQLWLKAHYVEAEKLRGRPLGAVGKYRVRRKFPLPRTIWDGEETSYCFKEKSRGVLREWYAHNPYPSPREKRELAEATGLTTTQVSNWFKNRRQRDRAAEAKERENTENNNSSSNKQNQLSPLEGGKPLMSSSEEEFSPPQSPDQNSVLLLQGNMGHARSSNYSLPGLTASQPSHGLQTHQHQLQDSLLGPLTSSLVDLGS
#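 AlphaScreen with GST-Six1 and His-Eya2 (5X mix: 250 nM and 500 nM), glutathione donor and nickel acceptor beads; buffer 50 mM Tris pH 8.0, 300 mM NaCl, 1 mM TCEP; 1 h at 37 C in the dark.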
# TRPML1 ag = human mucolipin-1 channel agonism; Q9GZU1; activation, % (concentration not given with the values); TRPML1-expressing cells, Ca2+ dye fluorescence, FDSS; host cell line not named in the record; reference of the full effect not given here; AID 624414; 0.12% of 410,000 active; in the data active = activation above about 50%; inconclusive = about 30% to 50%; inactive = below about 30%; note: 0% is about no effect; the text of the record puts the active cut at 80%
#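 Tetracycline-induced TRPML1-DL cells are seeded and incubated overnight before loading with a no-wash Ca2+ dye and quencher. Agonist activity is taken from the 110 s fluorescence read following compound pin-transfer on an FDSS, before EC80 54-4 challenge.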
# D2 agonist = activates the human D2 dopamine receptor; P14416; DiscoveRx PathHunter D2 beta-arrestin, luminescence, 90 min; 100% = 57 uM dopamine signal; activation, % (concentration not given with the values); 0.084% of 360,000 active; in the data active = activation above about 40%; inconclusive = about 15% to 40%; inactive = below about 15%; note: compound concentration not given in the record; the text of the record calls up to 30% inactive
#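 Agonist mode: compounds alone added to overnight-plated D2 PathHunter cells for 90 min at 37 C, with 57 uM final dopamine (EC100) defining full response. Beta-arrestin recruitment detected by chemiluminescent reagent, read after 1 h at ambient temperature.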
# PINK1 modulator = modulators of PINK1 expression. 0.2% of 410,000 active. PINK1 immunofluorescence, high-content cytometry, 24 h. Potency, µM (top dose mostly 76.6 µM), without a hit: at the highest dose activation (PINK1 increase), most hits filed as activators; active = well fitted activation curve with a large enough effect; inconclusive = small, poorly fitted or top-dose-only effect; inactive = flat fitted curve, though single readings scatter; cell line not stated here;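 note: potency is the fitted concentration of half-maximal effect; % of control where 0% means no effect; nearly all actives have a fitted effect of over 65% in size; a mitochondrial uncoupler was the plate control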
#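 Cells are seeded, rested 12 hours, then given compound at five concentrations or DMSO for 24 hours. After fixation, blocking and antibody staining, PINK1 amount and mitochondrial localization are scored; CCCP serves as control.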
# CtBP-E1A blk = blocks the CtBP interaction with E1A | AlphaScreen GST-E1A/His-CtBP binding, 1536-well; active compounds read low; control for the full effect not named in the record | activity change, % (concentration not given with the values) | 0.49% of 340,000 active | AID 651724; in the data active means activity change below about -65%; inconclusive means about -30% to -65%; inactive means above about -30%; note: % is set by controls: 0 for no effect and ±100 for the full control effect
#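 Steps: dispense buffer (Tris pH 8.0, NaCl 300 mM, TCEP 1 mM, BSA, Tween 20); add 5X protein mix (GST-E1A, His-CtBP, 125 nM each); pin 23 nL compound; 2 h at 37 °C, dark; add 5X beads (50 ug/mL); 1 h; read.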
# An asterisk follows results filed as active; ? = inconclusive; nt = no result given; [ ] = remark or other dose.
SMILES,D2 potentiator,Six1-Eya2 inh,TRPML1 ag,D2 agonist,PINK1 modulator,CtBP-E1A blk
CCOC(=O)C1C(=O)CC(C)(O)C(C(=O)OCC)C1c1ccc(OCC)cc1 (configuration not stated),-5.4,2.1,0.3,-1.3,3.6%[38.3 µM],-3.4
CC1=CSC2=NC(=O)/C(=C/c3cccc(OC(=O)c4ccco4)c3)C(=N)N12,9.0,-12.5,-0.2,-0.4,0.2%,4.6
CCOc1ccccc1N1CCN(CC(=O)Nc2ncc(C)s2)CC1,-4.8,0.1,0.4,-3.9,5.0%,-2.7
O=C(NCCC(=O)N1CCc2ccccc21)c1ccccc1Cl,-11.2,3.3,-0.5,-3.1,-0.2%,-6.0
O=C(OCc1nnc(-c2ccccc2Br)o1)c1ccco1,-0.6,-5.5,-0.4,1.1,1.8%,nt
CCCc1c(C(=O)N/N=C/c2ccc(OC)c(OCc3ccccc3)c2)nnn1-c1nonc1N,-28.8,-5.1,0.0,4.3,7.3%,-12.3
O=c1c2ccccc2nc(-c2ccccc2)n1CCCn1ccnc1,16.3,0.8,-1.2,-1.7,-0.3%,6.1
CCOC(=O)CC1COc2ccccc2N1C(=O)c1cccc([N+](=O)[O-])c1 (configuration not stated),-6.7,2.3,1.3,-1.4,2.9%,-1.6
CC(=O)N1N=C(c2ccc(C)cc2)CC1c1ccco1 (configuration not stated),-7.4,7.0,1.9,-1.0,-2.3%,19.2
COc1ccc(NC(=O)CNS(=O)(=O)c2ccc(Cl)cc2)cc1,0.7,6.2,0.2,0.7,2.0%,2.9
CC1CC(C)(C)CC2(C1)NC(=O)N(CC(=O)Nc1cc([N+](=O)[O-])ccc1F)C2=O (configuration not stated),-11.8,2.5,0.0,-4.5,1.8%,nt
O=C(CCC(=O)N1CCOc2ccc(Cl)cc21)NCCCN1CCC(Cc2ccccc2)CC1,-11.1,-5.2,-0.4,-2.0,-1.3%,0.4
COc1ccc(C(=O)NCC(=O)NCC2COc3ccccc3O2)cc1 (configuration not stated),-22.3,0.0,-0.8,-3.8,1.4%,6.0
CCN(C(C)=O)c1nnc(CSc2nc3ccccc3s2)s1,-10.1,-2.0,-0.2,-2.3,-0.5%,4.0
CSCCC(NC(C)=O)C(=O)OCC(=O)N(c1ccccc1)c1ccccc1 (configuration not stated),-11.6,7.0,0.7,-0.5,-1.2%,1.1
CCc1ccc(C(=O)OCC(=O)Nc2cccc(S(=O)(=O)NC3=NCCCCC3)c2)cc1,-16.3,-2.7,0.8,1.3,-1.7%,1.6
Oc1ccc(N2Cc3ccccc3C2)cc1,1.8,-9.3,0.0,5.1,-0.1%,3.4
COc1ccc(CC(=O)Nc2nn(C)c3nc4c(C)cccc4cc23)cc1,-8.2,5.7,-0.4,1.2,3.5%,0.7
CC(C)Oc1ccc(CN2CCC2(C)C(=O)Nc2ccc3c(c2)OCO3)cc1 (configuration not stated),-10.0,-11.0,-0.9,0.9,1.3%,-8.6
CCn1c(=O)n(CC)c2cc(N3CCCC3)c(NC(=O)c3ccccc3F)cc21,-5.8,-0.3,1.7,-4.8,1.5%,1.1
O=C1/C(=C/c2ccco2)Cc2ccccc21,-5.8,-29.0,0.4,-3.4,-0.9%,1.6
CN1CCC2(CC1)NC(=O)NC2=O,11.5,0.9,-0.3,0.8,-1.0%,5.2
CCN(CC)C(=O)C1c2ccccc2Oc2ccccc21,-0.6,7.1,0.0,-0.5,0.2%,-4.5
Cc1c2c(nc3ccccc13)CC(C)(C)CC2=O,-7.7,3.5,-0.5,0.8,-0.2%,5.6
CC(C)Cc1ccc(C(C)NC(=O)Cc2ccc(S(=O)(=O)N3CCOCC3)s2)cc1 (configuration not stated),8.2,-1.4,2.5,1.3,1.0%,4.0
CCC(=NCCc1c(C)[nH]c2ccccc12)C1=C(O)CC(c2ccccc2)CC1=O (configuration not stated),18.6,-21.4,0.4,6.5,6.7%,-19.6
Cc1c(C(=O)OC/C(O)=C(\C#N)c2nc3ccccc3[nH]2)oc2ccc(Br)cc12,0.4,6.8,0.1,-1.1,7.7%,-5.8
Cc1cc(C)c(C#N)c(SCc2[nH]nc3c2C(c2ccc(F)cc2)C(C#N)=C(N)O3)n1 (configuration not stated),2.8,-7.2,0.7,-5.4,-1.9%,-3.2
CN(C)Cc1c(O)ccc2c1O/C(=C\C=C\c1ccccc1)C2=O,-26.6,-1.6,nt,-10.1,0.9%,-4.8
COCCN(Cc1ccccc1)C(=O)c1ccc(C(=O)c2ccccc2)cc1,-7.5,10.8,1.1,-2.6,0.1%,nt
CCCNC(=O)N[C@@H](CCSC)C(=O)OC,-3.2,0.0,0.2,-1.2,4.2%[38.3 µM],-4.4
NS(=O)(=O)c1ccc(N2C(=O)C(=O)/C(=C(/O)c3ccccc3)C2c2ccc(Cl)cc2)cc1 (configuration not stated),-0.1,4.9,1.4,-1.9,-0.2%,5.7
O=C(CS(=O)(=O)Cc1ccccc1)Nc1ccc(S(=O)(=O)N2CCCCCC2)cc1,1.8,3.8,-0.4,0.3,-1.8%,0.5
Cn1c(COc2ccccc2)nnc1SCC(=O)Nc1ccc(S(N)(=O)=O)cc1,-14.4,2.8,1.1,-2.5,?,2.7
CCCCNC(=O)C1(C)CCN1C(=O)c1ccc(C)c(F)c1 (configuration not stated),-5.2,0.1,-0.9,-3.1,0.0%,0.9
CC(NS(=O)(=O)c1ccc(OCC(=O)Nc2cccc([N+](=O)[O-])c2)cc1)c1ccccc1 (configuration not stated),-10.6,-15.6,0.7,1.1,0.3%,-6.3
CCCCC(=O)OCc1c(-c2ccccc2)ncc2ccccc12,-1.1,14.0,9.5,-0.9,10.9%,15.1
CCCCCCCCCS(=O)(=O)N/N=C/c1cccc([N+](=O)[O-])c1,1.1,-9.6,0.7,2.2,8.8%[38.3 µM],-7.7
CN1C(=O)C(=O)N(CC(=O)Nc2ccccc2OC(F)F)C1=O,7.5,6.7,-1.1,-2.0,1.1%,nt
Cc1nc2ccc(NC(=O)N(C(C)C)C(C)C)cc2s1,-2.3,-0.4,-0.8,-3.5,-0.2%,3.4
C=CCn1c(C)cc(C(=O)COC(=O)C2CC(=O)N(CCc3ccc(OC)c(OC)c3)C2)c1C (configuration not stated),4.6,-7.6,-0.8,-6.2,-2.0%,14.9
CCOC(=O)[C@@H]1[C@H]2COc3ccc(Br)cc3[C@H]2N2C(=O)N(c3ccc(Cl)cc3)C(=O)[C@]12C,-3.3,-3.8,0.9,2.0,-0.3%,-6.2
O=C(C/C=N\OCc1ccc([N+](=O)[O-])cc1)Nc1ccc(Br)cc1,-11.2,-4.6,0.1,3.0,0.1%,0.8
O=c1cc(CCc2ccccc2)oc2cccc(O)c12,-18.9,13.7,nt,-5.2,0.4%,25.4
O=C(Nc1cscc1S(=O)(=O)c1ccc(Cl)cc1)c1ccccc1Cl,-10.3,1.7,0.4,-3.5,-0.3%,-21.5
COc1ccccc1CNC(=O)c1ccc(NC(=O)CC2SC(N3CCCC3)=NC2=O)cc1 (configuration not stated),-2.6,-1.0,-0.3,6.8,0.5%,-16.8
COc1ccc2nc(SCC(=O)O)nc(C)c2c1,6.1,-0.5,3.5,-1.8,-2.5%,1.0
COc1ccc(S(=O)(=O)N2CCC(C(=O)N3CCCCC3)CC2)cc1Cl,-17.4,1.5,-0.6,0.0,?,8.1
Cc1ccc(C)c(-c2cc(C(=O)Nc3nccs3)c3ccccc3n2)c1,-5.9,-8.3,0.7,-0.2,17.0%[38.3 µM],-9.9
Cc1ccc(CSCC(=O)NCc2cccnc2)cc1,-2.9,8.0,-0.2,0.1,-1.4%,-1.3
Oc1ccc(F)cc1-c1cc(-c2ccc3c(c2)OCCO3)n[nH]1,15.7,-1.9,-0.4,-0.4,1.6%,9.3
COC(=O)c1cnc(SC)nc1C,1.1,-11.9,-0.5,-1.7,2.1%,-12.8
NC(=O)Nc1ccc(C(=O)OCC(=O)Nc2cccc(S(=O)(=O)NC3=NCCCCC3)c2)cc1,-7.7,3.4,0.0,-5.1,2.1%,nt
Cn1c(SCC(=O)Nc2cccc(F)c2)nnc1-c1cc2ccccc2o1,-9.5,-0.3,0.5,-1.8,8.5%,1.8
CCCCC1C(=O)CC[C@H]2[C@@H]1CC(=O)[C@@H]2C/C=C\CCCC(=O)O (some centres not stated),-7.6,5.8,-0.3,1.8,0.7%,-8.1
Cc1ccc(/C=N/NC(=O)c2nnn(-c3nonc3N)c2CNc2ccccc2)cc1,-8.0,-1.1,0.4,3.6,0.4%,1.2
Cc1ccc(-n2nc(C)c(C(=O)Nc3cccc(C(=O)NC4CC4)c3)n2)c(C)c1,-1.2,-2.8,3.9,7.2,0.6%,-8.6
Cc1ccc(NC(=O)c2oc3ccccc3c2NC(=O)C2CC2)cc1,-6.3,2.9,1.0,2.4,4.7%,8.9
Cc1cc(=O)c(C(=O)O)cn1-c1ccc(C(C)C)cc1,-7.8,0.7,0.0,-1.8,-0.2%,-0.2
O=C1Cc2ccccc2C(=O)N1,nt,22.2,-0.6,nt,-1.1%,?

# Brought forward from above: three entries, followed by the next part.
SMILES,D2 potentiator,Six1-Eya2 inh,TRPML1 ag,D2 agonist,PINK1 modulator,CtBP-E1A blk
Cc1ccc(NC(=O)c2oc3ccccc3c2NC(=O)C2CC2)cc1,-6.3,2.9,1.0,2.4,4.7%,8.9
Cc1cc(=O)c(C(=O)O)cn1-c1ccc(C(C)C)cc1,-7.8,0.7,0.0,-1.8,-0.2%,-0.2
O=C1Cc2ccccc2C(=O)N1,nt,22.2,-0.6,nt,-1.1%,?
COc1ccc(CC(=O)NC2CC2)cc1OC,-1.5,19.4,0.0,-6.4,0.6%,nt
COC(=O)C1=C[C@@H](C(=O)OC)[C@@H]2C3=C(C(=O)[C@]2(C)NC(=O)c2ccccc2)[C@H](C)n2c(=O)n(C)c(=O)n2[C@@H]3C1,4.0,6.3,0.0,0.0,2.3%,nt
COc1ccc(NS(=O)(=O)c2ccc(-c3ccccn3)s2)cc1,-16.7,-1.0,-0.5,-4.7,1.2%,nt
COCCn1c(COc2ccc(Cl)cc2)nnc1SCC(N)=O,-7.2,-1.5,0.5,-3.0,-2.3%[38.3 µM],0.4
COc1cc2c(cc1OC)C(c1ccccc1)N(C(=O)c1ccccc1)CC2 (configuration not stated),-19.8,-2.8,0.4,-4.5,1.2%,nt
O=C(CSCc1ccccc1)N1CCN(Cc2ccc3c(c2)OCO3)CC1,-22.0,-9.0,3.6,-5.0,-2.4%,-1.5
O=C(CN1CCN(c2ccccc2)CC1)Nc1ccccc1Sc1ccccc1,-24.0,-15.7,1.0,0.6,2.6%,-2.4
Cc1cc(C)n2nc(C(=O)N(C)c3c(N)n(Cc4ccccc4)c(=O)[nH]c3=O)nc2n1,-15.1,19.8,0.4,-3.7,-1.2%,-4.1
Cc1ccc(C(=O)N/C(=C/c2ccco2)C(=O)OCN2C(=O)c3ccccc3C2=O)cc1,-23.3,10.6,0.9,-5.5,0.8%,1.1
COC1CCN(C(=O)c2cc(COc3cc(C)ccc3C)on2)CC1,-1.3,7.1,-0.8,0.1,3.0%,7.5
